Compound activity from PubChem BioAssay.
T cruzi inh: T. cruzi replication inhibition; inhibition, % (concentration not given with the values); 1.4% of 300,000 active; AID 1885; T. cruzi beta-gal in NIH3T3, luminescence, 90 h;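 active = mean inhibition across valid replicates above about 55%, limit read from the data; inconclusive = mean below that limit but half or more replicates reach it; inactive = mean below it, under half of replicates reach it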;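 also: signal also drops with host cell toxicity which is not excluded here; 0% = plate median of DMSO wells and 100% = zero luminescence signal; higher percent means less beta-gal luminescence so fewer parasites; stock transfer was 50 nL into about 50 µL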
Bfl-1 A1 inh: inhibitors of the anti-apoptotic protein A1, read as caspase activation. MEF A1-2A-BIM cells, Caspase-Glo 3/7 luminescence, 3 h; percent of clofoctol response, vehicle zero. 0.066% of 330,000 active. caspase activation, % (test concentration not listed). AID 2462;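 active = over half of replicate activation scores above 10%, or exactly half above 10 with the replicate mean above 10; inconclusive = replicate mean below 10 yet half the replicates above 10; inactive = over half of replicates below 10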;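 also: wells of about 30 µL received 50 nL stock; many hits fall short of the cut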
LANA-H2B inh: blocks KSHV LANA binding to histone H2A/H2B | inhibition, % (concentration not given with the values) | 0.6% of 320,000 active | Q9QR71 | cell-free LANA-H2A/H2B peptide, fluorescence polarization; in the data active = inhibition mostly above about 10%, no sharp cut-off; inactive = mostly below about 6.7%;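 also: stock transfer was 7.5 nL into about 10 µL; 0% = median of vehicle wells and 100% = median of positive control wells; one replicate is shown; the record names a cut of 25% in any replicate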
Calb FLC: C. albicans growth modulation with fluconazole. AID 1979. C. albicans CaCi-2 (fluconazole-resistant clinical isolate) + fluconazole, Alamar Blue growth, 48 h. growth inhibition, % (no concentration beside the values). 0.57% of 300,000 active;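 active = most replicates above 75%; inconclusive = exactly half above 75%; inactive = most below 75%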;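 also: all wells also contain fluconazole at 8 µg/ml as a sub-toxic cotreatment; 0% = median of DMSO wells and 100% = median of geldanamycin control wells; wells of about 8 µL received 7.5 nL stock; the first replicate is given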
rRNA inh HTS: selective bacterial rRNA inhibition in E. coli; E. coli WT GFP vs humanized-ribosome RFP mutants, fluorescence, 24 h; hits give low values; DMSO median 0, no signal -100; GFP signal change (wild-type ribosome), % (test concentration not listed); 1.6% of 350,000 active; AID 720706;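 active = significant combined selectivity score with lowered wild-type GFP, culture density cut under 30%, mutant RFP and density less affected; inactive = any of these conditions unmet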; also: one replicate is shown; some compounds called inactive have numbers as strong as hits
Beta2AR agonist: activates human beta-2 adrenergic receptor causing internalization. P07550. Am2.2-beta2AR cells, FAP receptor internalization, flow cytometry; reference of the scale not given here. response, % (test concentration not listed). 0.43% of 340,000 active. AID 504454;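 active = response above a set limit, near 3 SD of response in nonfluorescent compounds, cut at about 42% in these data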;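 also: stock transfer was 100 nL into about 11 µL; a reference agonist was the positive control; negative values mostly stem from fluorescent compounds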
Target sequence (P07550 whole entry, looked up): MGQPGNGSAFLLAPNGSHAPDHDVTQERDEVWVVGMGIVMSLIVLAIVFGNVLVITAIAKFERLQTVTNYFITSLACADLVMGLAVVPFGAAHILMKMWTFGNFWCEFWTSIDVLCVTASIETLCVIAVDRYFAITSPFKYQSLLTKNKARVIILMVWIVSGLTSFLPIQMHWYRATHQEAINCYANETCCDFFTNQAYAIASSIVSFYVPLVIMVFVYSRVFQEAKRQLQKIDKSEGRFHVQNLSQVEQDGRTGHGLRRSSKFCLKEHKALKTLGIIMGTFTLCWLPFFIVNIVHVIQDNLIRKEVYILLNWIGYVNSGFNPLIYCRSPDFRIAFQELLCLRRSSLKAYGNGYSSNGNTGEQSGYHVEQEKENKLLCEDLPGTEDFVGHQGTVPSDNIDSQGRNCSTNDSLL
ALR H2O2 inh: human ALR oxidase inhibition via reduced H2O2. P55789. purified ALR, DTT oxidation, H2O2 HRP-luminol luminescence. inhibition, % (concentration not given with the values). 3.8% of 290,000 active;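 active = mean and each replicate at 75% or more; inconclusive = only one of the two met; inactive = neither met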;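 also: stock transfer was 7.5 nL into about 7.5 µL; 0% = neutral wells and 100% = wells with inactivated enzyme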
Target sequence (P55789 whole entry, looked up): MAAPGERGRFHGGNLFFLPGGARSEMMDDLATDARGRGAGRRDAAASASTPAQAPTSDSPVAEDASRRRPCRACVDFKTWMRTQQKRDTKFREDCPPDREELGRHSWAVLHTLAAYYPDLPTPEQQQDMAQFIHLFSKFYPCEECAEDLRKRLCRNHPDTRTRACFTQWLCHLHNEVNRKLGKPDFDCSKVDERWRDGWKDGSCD
Beta apoptosis: blocks beta cell apoptosis | protection from apoptosis, % (no concentration beside the values) | AID 435005 | INS-1E cytokine-induced death, ATP luminescence, 48 h; percent of positive-control rescue, neutral wells zero | 0.8% of 300,000 active;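 active = all replicates at 75% or more, or half of them and the mean; inconclusive = half reach 75% but not the mean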;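 also: 0% = cytokine-treated negative control wells and 100% = positive control rescue; higher means more ATP so stronger rescue from cytokine killing; wells of about 40 µL received 100 nL stock; the first replicate is given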
rRNA inh HTS OD600: second read-out of rRNA inh HTS, no call of its own (marks repeat the call); OD600 change, %; measured here: OD600 growth;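 optical density of the mix in the first replicate; 0 = DMSO median and -100 = no signal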
rRNA inh HTS RFP: also measured in rRNA inh HTS; calls as there; RFP signal change, %; measured here: RFP humanized mutant strains;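 first replicate; 0 = DMSO median and -100 = no signal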
The depositor's hits bear a star; ? = inconclusive; . = not tested or not shown.

SMILES	T cruzi inh	Bfl-1 A1 inh	LANA-H2B inh	Calb FLC	rRNA inh HTS	rRNA inh HTS OD600	rRNA inh HTS RFP	Beta2AR agonist	ALR H2O2 inh	Beta apoptosis
O=C(NCC1CCCO1)c1onc(CSc2ccccc2F)c1C(=O)O (configuration not stated)	1	1.8	1.0	-5	2	0	0.5	-3	-5	-8
O=C(NCCOc1nc(N2CCCCC2)nc(N2CCOCC2)n1)Nc1ccccc1	17	-0.4	4.7	1	.	.	.	-2	1	-3
CCCCCc1nc2c(c(=O)c3ccccc3n2C)c(=O)n1Cc1ccc(OC)cc1	12	-0.7	0.1	13	-3	7	-3.8	-3	-13	7
COc1cc(C(=O)Nc2ccc([N+](=O)[O-])cn2)cc(OC)c1OC	-6	-0.5	-1.8	-2	.	.	.	2	-9	6
CCOc1ccc(C(=O)NCC2OCCc3ccccc32)cc1 (configuration not stated)	12	-0.8	-2.7	5	.	.	.	-6	-5	-1
CCN(Cc1ccncc1)C(=O)c1ccco1	-22	2.8	-2.9	.	17	16	0.4	2	-2	1
COc1cccc(N2CCN(S(=O)(=O)c3ccc(-c4coc(C)n4)cc3)CC2)c1	7	-0.5	-4.8	6	0	2	3.8	-1	-7	.
Cc1cc(C)nc(SCC(=O)Nc2ncc3c(n2)CC(C)(C)CC3=O)n1	0	0.0	0.5	-3	.	.	.	-9	-10	-2
Cn1c(=O)oc2cc(S(=O)(=O)NCc3ccncc3)ccc21	-10	-0.1	-1.8	3	.	.	.	-62	-5	16
Cc1cccc(N2C(=O)/C(=C/c3ccccn3)SC2=S)c1	-8	0.2	-0.7	1	13	8	-0.1	5	2	2
COCCNC(=O)C/C(C)=N/NC(=O)C(=O)NC1CCCCC1	2	0.6	2.2	9	19	13	3.2	-1	11	-8
CCOc1cc(/C=C/C(=O)O)ccc1OCCOc1ccc(F)cc1	-12	0.9	2.4	15	1	6	-2.7	-6	.	-8
CC(=O)c1cnn(-c2ccccc2)c1C	-11	0.6	2.1	17	30	15	4.2	-1	0	-4
O=C(O)c1cc(C2CC2)nn1-c1ccccc1	-16	-0.2	0.1	6	-6	-2	-2.5	1	1	-2
COc1ccc(CC(=O)Nc2ccccc2C(=O)NCCc2ccccc2)cc1	-10	-0.1	-3.2	-1	-15	-18	-2.2	2	-5	-2
CCCC(c1nnnn1CCOC)N(Cc1cc2cc(C)c(C)cc2[nH]c1=O)CC1CCCO1 (configuration not stated)	-9	-0.5	-1.7	-5	6	7	1.9	-3	99*	-6
Cc1ccc(N(CC2CO2)S(=O)(=O)c2ccc([N+](=O)[O-])cc2)cc1 (configuration not stated)	5	0.8	-1.1	2	-18	-17	2.7	-3	.	0
CCCCOc1ccc(Nc2cc(Cl)ccc2C(=O)O)cn1	-1	2.3	-4.1	27	-33	-46	-6.2	6	27	-3
C=CCNC(=O)N1CCC(n2nccc2NC(=O)CCCc2ccccc2)CC1	-3	0.0	2.0	3	5	11	-1.1	0	-56	1
CC(C)[C@@H](N)C(=O)N/N=C/c1ccc2nccnc2c1	-6	0.4	4.4	1	13	10	1.7	5	-5	.
O=C1C=C(O)c2cccc3cccc1c23	-18	2.2	-1.3	1	-7	6	1.5	7	8	-7
O=c1c2cc3c(cc2[nH]c(=S)n1C1CCN(Cc2ccccc2)CC1)OCO3	18	1.7	-0.4	19	14	0	1.3	9	93*	14
CCC1(C(=O)c2ccccc2)C(c2cccc([N+](=O)[O-])c2)C1(C(=O)OC)C(=O)OC (configuration not stated)	25	-0.6	-2.0	20	.	.	.	12	.	-1
Cc1ccc(N=Nc2c(C)[nH]n(-c3ccccc3)c2=O)c(C)c1	-14	0.4	-1.6	-3	3	15	-1.0	0	-31	.
CSc1ncccc1C(=O)OCC(=O)Nc1ccc2c(c1)CCC2	.	2.3	3.3	.	-2	-22	1.4	2	-5	-4
COc1ccc(C(=O)CCc2ccccc2)cc1	-11	0.2	0.4	-2	-6	-5	-1.7	-7	-2	-1
c1cncc(-c2nc3ccccc3o2)c1	-20	-1.8	-18	11	.	.	.	-72	0	-1
Cc1ccc(CNC(=O)c2cc(=O)c3cc(C)ccc3o2)cc1	-17	1.3	-2.5	0	1	10	-1.6	-2	-2	-4
COc1cc(C(=O)N2CCN(c3ccccc3OC)CC2)c([N+](=O)[O-])cc1OC	2	1.1	-0.4	21	11	0	1.7	10	15	10
CCOC(=O)CNC(=O)c1cn(CC(C)C)c(=O)c2cc(OC)c(OC)cc12	18	0.4	7.0	0	.	.	.	-8	10	-1
Cc1cc(C)n(-c2nc3c(c(=O)n(C)c(=O)n3C)n2CCO)n1	-6	0.1	0.3	-21	7	16	3.8	4	-4	-1
COc1cccc(CCC(=O)N2CCC(n3nccc3NC(=O)C3CCOC3)CC2)c1 (configuration not stated)	19	2.2	-2.4	1	8	8	-0.8	13	0	-1
COc1ccc(C2CC(=O)C(C=NCCO)=C(O)C2)cc1OC (configuration not stated)	-24	-0.3	0.7	-1	.	.	.	2	-6	-7
c1ccc2c(c1)c1c3n2CCNC3CCC1 (configuration not stated)	1	-0.2	5.5	-23	.	.	.	-1	48	-2
C(=N\c1nccs1)/c1cccnc1	-10	0.1	-3.0	-4	.	.	.	-6	-6	5
COc1ccc(-n2c(CN3CCN(c4ccccn4)CC3)nc3ccc([N+](=O)[O-])cc3c2=O)c(OC)c1	3	0.4	-2.4	3	1	5	-2.3	-17	0	1
N#Cc1c(N)nc(SCC(=O)C23CC4CC(CC(C4)C2)C3)c(C#N)c1-c1ccc(Cl)cc1	6	0.7	1.9	-5	.	.	.	-3	-1	7
N#CCC(=O)Nc1ccc(C(=O)Nc2cccnc2)cc1	6	-0.3	1.1	?	10	26	6.3	-3	100*	-1
Oc1ccc2oc3c(c2c1/C=N/n1cnnc1)CCCC3	-47	-0.1	-5.4	22	.	.	.	-20	-14	.
COc1ccc(NC(=S)N2CCN(c3ncccn3)CC2)cc1	-13	-0.6	-5.5	-22	-2	2	-1.4	-14	3	0
Cc1cc(F)ccc1S(=O)(=O)Nc1ccc(O)c(Sc2ncn[nH]2)c1	-25	-0.4	4.2	2	-4	-3	0.8	-2	99*	3
CN(Cc1cn(Cc2ccccc2)nc1-c1ccc2c(c1)OCO2)Cc1nccn1C	15	0.7	2.4	-5	0	-6	1.0	12	-3	1
Cc1nn(C)c(C)c1CN(C)C(=O)C1c2ccccc2Oc2ccccc21	-6	1.7	2.9	-2	.	.	.	-2	2	-1
CC(=O)C[C@H]1c2ccccc2S(=O)(=O)N1C1CCCCC1	-1	-0.9	2.9	10	4	7	-1.5	-4	-5	-6
Cc1c(NC(=O)C(C)Sc2ccc3ccccc3n2)c(=O)n(-c2ccccc2)n1C (configuration not stated)	7	-0.7	-1.7	-7	.	.	.	-7	-4	-4
Cc1nn2c(=O)c(NC(=O)c3ccc(Cl)cc3)cnc2s1	3	-0.4	3.7	-5	4	7	-2.3	-6	-3	3
CCNc1ccc(C(=O)OCC(=O)N(Cc2ccccc2)C(C)(C)C)cc1[N+](=O)[O-]	2	-0.2	-1.2	2	.	.	.	-16	-9	-6
CC(C)CC(=O)Nc1nnc(S(=O)(=O)N2CCCCCC2)s1	-8	-1.1	-3.9	7	2	14	-3.2	-8	-5	-2
COc1cc(-c2nnc(SCC3(c4ccc(Br)cc4)OCCO3)o2)cc(OC)c1OC	20	0.4	7.6	-6	.	.	.	-8	-7	1
CCCN1CCN(C2CCCCC2NS(=O)(=O)c2ccccc2)CC1 (configuration not stated)	13	0.2	-1.7	6	9	9	12	0	3	-1
CC(=O)N/C(=C\c1ccccc1)C(=O)OCc1ccccc1	-16	-0.5	5.3	-6	3	10	-2.3	2	-2	-2
CC(C)(C)OC(=O)CC[C@@H](C(=O)N1CCN(C(=O)OC(C)(C)C)CC1)n1cc(C(CO)NC(=O)OC(C)(C)C)nn1 (some centres not stated)	-16	1.5	0.2	2	14	13	-0.7	-1	.	4
CC12CCC(=O)N1C(C(=O)Nc1nc(-c3ccc(F)c(F)c3)cs1)CS2 (configuration not stated)	2	0.4	2.3	3	2	8	2.1	2	-3	.
O=C(O)c1ccc2c(c1)ncn2C1CCCCC1	-19	-0.1	-4.8	-1	.	.	.	3	.	-8
Cc1ccc2c(c1)C=CC(C#N)N2C(=O)c1ccccc1 (configuration not stated)	-113	0.4	-1.5	10	-15	-24	-2.0	-2	1	27
N#C/C(=C\c1ccc(Sc2ccc(Cl)cc2)o1)c1nc2ccccc2[nH]1	.	1.3	2.5	.	-14	-34	5.2	-5	11	-3
Cc1ccc(S(=O)(=O)Cn2nnnc2CN2CCOCC2)cc1	-9	-0.1	-4.0	16	7	5	-5.3	0	-5	0
COC(=O)CCC(=O)NC1CC(C)(C)Cc2c1cnn2-c1ccccc1 (configuration not stated)	-11	-4.8	4.0	0	0	6	-1.0	2	15	-8
O=C(Cc1ccccc1)NN1C(=O)C2C3C=CC(C3)C2C1=O (configuration not stated)	-6	-1.7	-2.9	-8	.	.	.	-6	1	-5
O=C(Cc1sc(-c2ccccc2Cl)nc1-c1ccccc1)Nc1ccccc1	-3	-0.3	2.8	2	.	.	.	7	-3	5

The list continues:
SMILES	T cruzi inh	Bfl-1 A1 inh	LANA-H2B inh	Calb FLC	rRNA inh HTS	rRNA inh HTS OD600	rRNA inh HTS RFP	Beta2AR agonist	ALR H2O2 inh	Beta apoptosis
C[C@H](NC(=O)c1ccco1)C(=O)Nc1ccc(S(=O)(=O)N2CCCC2)cc1	-13	0.2	3.0	-6	.	.	.	-4	-5	-3
CN1CCN(S(=O)(=O)c2ccc(NC(=O)C3CCCCC3)cc2)CC1	-29	0.3	-2.9	-7	.	.	.	-2	-3	-2
CC(C)CN(C(=O)COC(=O)CNC(=O)c1ccccc1F)c1c(N)n(Cc2ccccc2)c(=O)[nH]c1=O	-12	-0.7	-0.6	-2	9	4	0.5	24	.	-5
CCOC(=O)C1CCCN(S(=O)(=O)c2cn(C)c(=O)n(C)c2=O)C1 (configuration not stated)	-8	0.2	0.2	0	-2	12	-2.6	-9	-3	-11
Cc1c(=O)n(OCc2ccccc2F)c2ccccc2[n+]1[O-]	-5	0.6	-2.0	0	.	.	.	-9	-4	4
Cc1ccc(OCCNS(=O)(=O)c2ccc(N3CCCC3=O)cc2)cc1C	-52	-0.1	-8.1	11	3	8	4.5	-19	-4	43
O=S(=O)(c1cccc2nonc12)N1CCN(c2cccc(Cl)c2)CC1	9	0.3	-5.6	-6	.	.	.	3	-32	-10
O=C(CSc1nnc(NC(=O)c2cccc(Cl)c2)s1)NCC1CCCO1 (configuration not stated)	-6	-3.7	-3.7	7	-8	6	-3.1	-2	-12	2
COc1ccc(Nc2nc(Cl)c(C=O)s2)cc1	1	-3.4	-4.8	6	.	.	.	-37	11	1
Cc1ccc(/C=C(\C#N)C(=O)NC(C)C)o1	-2	0.0	1.1	-4	2	3	0.8	2	-1	-7

Not all compounds are listed; rates above refer to the full screens.
